# UUG fidelity: modulators of start codon recognition fidelity in yeast; S. cerevisiae UUG-firefly luciferase reporter, luminescence/redox ratio; activity score, % at 18.7 µM; 350,000 compounds, 0.13% hits; AID 602363;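 active = replicate mean at a twofold rise or more, about +100% in these data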;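 also: firefly luciferase made from a UUG start codon reports start codon fidelity; reporter light over untreated wells divided by growth signal over untreated wells; some hits fall short of that in this replicate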
# HIV Env fusion: inhibitors of HIV Env-mediated cell fusion | HeLa-JRFL Env/CEM21 cell fusion, luciferase | inhibition, % at 12.3 µM | 360,000 compounds, 1.1% hits;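 active = mean replicate inhibition score of at least 50 and every replicate individually at or above 50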;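 also: 0% = plate neutral controls and 100% = maraviroc near 300 nM; one replicate is shown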
# * marks the source's active call; other numbers are inactive results; [ ] = dose if it differs, or a comment. An excerpt. The share of hits here may be higher or lower than overall.
# Values run as follows: UUG fidelity	HIV Env fusion
> CC(C)NC(=O)N[C@H]1C=C[C@@H](CC(=O)O)O[C@@H]1CO
  -2.9	9.4[16.7 µM]
> N#C[C@@H]1[C@@H](c2ccc(-c3cccc(F)c3)cc2)[C@H](CO)N1C(=O)CN1CCOCC1
  1.8	15.2[16.7 µM]
> C[C@H]1CN([C@@H](C)CO)C(=O)c2cc(NC(=O)C3CCCCC3)ccc2O[C@@H]1CN(C)C
  -12.8	15.1[16.7 µM]
> O=C(C[C@H]1CC[C@@H](NC(=O)c2cccc(F)c2)[C@H](CO)O1)NCc1ccccc1
  -9.7	-10.3[16.7 µM]
> CCCC(=O)Nc1ccc2c(c1)C(=O)N(C)[C@H]1CC[C@H](CC(=O)NCc3ccccc3)O[C@@H]1CO2
  7.5	-4.9[16.7 µM]
> COc1ccc(NC(=O)Nc2ccc3c(c2)C(=O)N([C@@H](C)CO)C[C@@H](C)[C@@H](CN(C)S(=O)(=O)c2ccccc2)OCCCC[C@H](C)O3)cc1
  14.8	3.2[16.7 µM]
> C[C@H](CO)N1C[C@H](C)[C@@H](CN(C)Cc2ccc(Cl)c(Cl)c2)OCCCC[C@H](C)Oc2ccc(NC(=O)Nc3ccc(C(F)(F)F)cc3)cc2C1=O
  -11.3	11.6[16.7 µM]
> COc1ccc(S(=O)(=O)Nc2cccc3c2O[C@@H](CN(C)Cc2ccc4c(c2)OCO4)[C@H](C)CN([C@@H](C)CO)C3=O)cc1
  11.2	-0.6[16.7 µM]
> CCCNC(=O)C[C@@H]1CC[C@@H]2[C@H](COc3ccc(NC(=O)Nc4cccc(C)c4)cc3C(=O)N2C)O1
  14.1	25.0[16.7 µM]
> CC(C)[C@H]1C=C(C(=O)NCc2ccccc2)O[C@@H](OCc2ccc(CO)cc2)C1
  3.0	13.6[16.7 µM]

# Single values from the entries so far.
# In HIV Env fusion, CC(C)[C@H]1C=C(C(=O)NCc2ccccc2)O[C@@H](OCc2ccc(CO)cc2)C1 shows 13.6[16.7 µM]
# In HIV Env fusion, CCCNC(=O)C[C@@H]1CC[C@@H]2[C@H](COc3ccc(NC(=O)Nc4cccc(C)c4)cc3C(=O)N2C)O1 shows 25.0[16.7 µM]
# In HIV Env fusion, C[C@H](CO)N1C[C@H](C)[C@@H](CN(C)Cc2ccc(Cl)c(Cl)c2)OCCCC[C@H](C)Oc2ccc(NC(=O)Nc3ccc(C(F)(F)F)cc3)cc2C1=O shows 11.6[16.7 µM]

# The list continues.
# Values run as follows: UUG fidelity	HIV Env fusion
> C[C@H](CO)N1C[C@H](C)[C@H](CN(C)S(=O)(=O)c2cccc(F)c2)Oc2ncc(C#CC3CC3)cc2C1=O
  15.2	18.2[16.7 µM]
> C[C@H]1CN([C@@H](C)CO)C(=O)c2cc(-c3cncnc3)cnc2O[C@H]1CN(C)C(=O)Nc1ccc2c(c1)OCO2
  -8.3	-12.0[16.7 µM]
> C[C@@H]1CN([C@@H](C)CO)C(=O)Cc2cc(NS(=O)(=O)c3ccc(F)cc3)ccc2O[C@H]1CN(C)Cc1ccc2c(c1)OCO2
  4.9	32.7[16.7 µM]
> CCC(=O)Nc1ccc2c(c1)OC[C@@H](C)N(C(=O)c1cnccn1)C[C@@H](C)[C@@H](OC)CN(C)C2=O
  5.9	11.5[16.7 µM]
> COc1ccccc1NC(=O)N[C@H]1CC[C@H](CC(=O)N[C@@H](C)c2ccccc2)O[C@H]1CO
  -8.0	-1.9[16.7 µM]
> C[C@@H]1CN([C@@H](C)CO)C(=O)c2cc(C#C[C@@H](C)O)cnc2O[C@@H]1CN(C)C(=O)Cc1ccccn1
  -6.9	-6.2[16.7 µM]
> C[C@@H]1CCCCO[C@@H](CN(C)C)[C@@H](C)CN([C@H](C)CO)C(=O)c2cc(NS(=O)(=O)c3ccc(F)cc3)ccc2O1
  1.9	-9.6[16.7 µM]
> O=C(C[C@H]1CC[C@@H]2[C@H](COC[C@H](O)CN2CC2CCOCC2)O1)NCC1CC1
  14.4	1.6[16.7 µM]
> CO[C@H]1CN(C)C(=O)c2cc(NS(=O)(=O)c3cccc(C)c3)ccc2OC[C@H](C)NC[C@H]1C
  -4.5	8.5[16.7 µM]
> Cc1noc(C)c1NC(=O)N(C)C[C@@H]1Oc2ccc(NC(=O)C3CC3)cc2C(=O)N([C@@H](C)CO)C[C@H]1C
  -12.2	-8.3[16.7 µM]

# Going on with the list.
# Values run as follows: UUG fidelity	HIV Env fusion
> CO[C@@H]1CN(C)C(=O)c2cc(NC(=O)c3cnccn3)ccc2OC[C@@H](C)NC[C@H]1C
  -3.9	5.8[16.7 µM]
> O=C(C[C@@H]1CC[C@@H]2[C@H](COC[C@H](O)CN2C(=O)Nc2ccc(F)cc2)O1)NCCc1ccccc1
  2.1	-12.4[16.7 µM]
> C[C@H]1CN([C@@H](C)CO)C(=O)Cc2cc(NS(=O)(=O)c3ccc(Cl)cc3)ccc2O[C@@H]1CN(C)S(=O)(=O)c1ccccc1
  -4.4	2.8[16.7 µM]
> C[C@@H]1CN([C@@H](C)CO)C(=O)c2cc(NC(=O)CCN3CCOCC3)ccc2O[C@@H]1CN(C)C(=O)Nc1cccc2ccccc12
  25.8	19.8[16.7 µM]
> COCC#Cc1cnc2c(c1)C(=O)N([C@H](C)CO)C[C@@H](C)[C@@H](CN(C)C(=O)Nc1ccccc1OC)O2
  -6.7	-2.0[16.7 µM]
> C[C@@H]1CCCCO[C@H](CN(C)C(=O)C2CCCCC2)[C@@H](C)CN([C@H](C)CO)C(=O)c2cc(NS(=O)(=O)c3cccs3)ccc2O1
  0.8	-35.9[16.7 µM]
> C[C@@H]1CN([C@H](C)CO)C(=O)c2cccc(NC(=O)Nc3cccc4ccccc34)c2O[C@H]1CN(C)S(C)(=O)=O
  6.3	16.9[16.7 µM]
> C[C@H]1CN([C@@H](C)CO)C(=O)CCCn2nncc2CO[C@@H]1CN(C)C(=O)Nc1ccccc1F
  20.8	9.2
> COc1ccc(CN(C)C[C@@H]2OCCCC[C@@H](C)Oc3ccc(NS(=O)(=O)c4ccc(OC)cc4)cc3C(=O)N([C@@H](C)CO)C[C@H]2C)cc1
  4.7	-21.2[16.7 µM]
> C[C@H](CO)N1C[C@H](C)[C@H](CN(C)S(=O)(=O)c2ccccc2)Oc2c(NC(=O)Nc3ccccc3)cccc2C1=O
  3.0	-1.2[16.7 µM]

# Further structures follow.
# Values run as follows: UUG fidelity	HIV Env fusion
> CC(=O)N(C)C[C@H]1Oc2cc(C#CC(C)(C)O)ccc2S(=O)(=O)N([C@@H](C)CO)C[C@H]1C
  2.3	-12.8[16.7 µM]
> Cc1noc(C)c1NC(=O)Nc1ccc2c(c1)C(=O)N([C@@H](C)CO)C[C@@H](C)[C@H](CN(C)S(=O)(=O)c1ccc(F)cc1)OCCCC[C@H](C)O2
  16.1	-14.2[16.7 µM]
> NCC[C@H]1CC[C@@H](NC(=O)Nc2ccc(F)cc2)[C@@H](CO)O1
  10.6	-4.5[16.7 µM]
> O=C(NCC[C@@H]1CC[C@@H](NC(=O)C2CCCC2)[C@H](CO)O1)c1ccc(F)cc1
  -11.2	-19.7[16.7 µM]
> COc1ccc(S(=O)(=O)N(C)C[C@@H]2OCCCC[C@@H](C)Oc3ccc(NC(=O)CCCN(C)C)cc3C(=O)N([C@@H](C)CO)C[C@H]2C)cc1
  5.9	8.2[16.7 µM]
> COCC(=O)N(C)C[C@@H]1Oc2cc(C#CCC3CCCC3)ccc2S(=O)(=O)N([C@H](C)CO)C[C@H]1C
  9.4	26.2[16.7 µM]
> CCC(=O)N(C)C[C@@H]1Oc2cc(C#CCN(C)C)ccc2S(=O)(=O)N([C@H](C)CO)C[C@H]1C
  6.5	-21.5[16.7 µM]
> C[C@H](CO)N1C[C@H](C)[C@H](CN(C)Cc2ccc(C(F)(F)F)cc2)OCCCC[C@H](C)Oc2ccc(NC(=O)Nc3ccc(F)cc3)cc2C1=O
  119.8*	35.8[16.7 µM]
> C[C@@H]1CCCCO[C@H](CN(C)C(=O)Cc2ccccc2)[C@H](C)CN([C@H](C)CO)C(=O)c2cc(NS(=O)(=O)c3ccc(F)cc3)ccc2O1
  0.4	-11.7[16.7 µM]
> COc1ccc(S(=O)(=O)Nc2ccc3c(c2)CC(=O)N([C@@H](C)CO)C[C@@H](C)[C@@H](CN(C)S(=O)(=O)c2ccc(F)cc2)O3)cc1
  24.8	-4.4[16.7 µM]

Molecule: C[C@H]1CN([C@@H](C)CO)C(=O)c2cccc(NC(=O)C3CCOCC3)c2O[C@@H]1CN(C)CC1CCCCC1
  UUG fidelity = -2.1	HIV Env fusion = 13.9[16.7 µM]

Molecule: O=C(N[C@@H]1CC[C@H](CCNC(=O)C2CCC2)O[C@H]1CO)c1ccccn1
  UUG fidelity = 21.2	HIV Env fusion = 10.4[16.7 µM]

Molecule: C[C@@H]1CN([C@H](C)CO)S(=O)(=O)c2ccc(-c3cncnc3)cc2O[C@@H]1CN(C)Cc1cccnc1
  UUG fidelity = -6.4	HIV Env fusion = 13.5[16.7 µM]

Molecule: C[C@@H]1CN([C@H](C)CO)C(=O)c2cc(NC(=O)c3ccccc3)ccc2O[C@@H](C)CCCCO[C@H]1CN(C)C(=O)C1CCCCC1
  UUG fidelity = 11.1	HIV Env fusion = -10.5[16.7 µM]

Molecule: COCC(=O)N(C)C[C@H]1Oc2cc(C#CC(C)C)ccc2S(=O)(=O)N([C@H](C)CO)C[C@H]1C
  UUG fidelity = -9.0	HIV Env fusion = 3.6[16.7 µM]

Molecule: COc1ccc(S(=O)(=O)N(C)C[C@@H]2OCCCC[C@H](C)Oc3ccc(NC(=O)Cc4ccccc4)cc3C(=O)N([C@@H](C)CO)C[C@@H]2C)cc1
  UUG fidelity = 17.9	HIV Env fusion = 6.4[16.7 µM]

Molecule: C[C@@H]1CN([C@@H](C)CO)C(=O)c2cc(NC(=O)CCC(F)(F)F)ccc2O[C@@H](C)CCCCO[C@H]1CN(C)C(=O)Cc1ccccc1
  UUG fidelity = 10.1	HIV Env fusion = -6.0[16.7 µM]

Molecule: Cc1noc(C)c1NC(=O)N[C@@H]1CC[C@H](CC(=O)Nc2ccc(-c3ccccc3)cc2)O[C@H]1CO
  UUG fidelity = 3.2	HIV Env fusion = 13.8[16.7 µM]

Molecule: COc1cccc(C(=O)Nc2ccc3c(c2)C(=O)N(C)[C@@H]2CC[C@@H](CC(=O)NCC4CC4)O[C@@H]2CO3)c1
  UUG fidelity = 13.5	HIV Env fusion = 5.4[16.7 µM]

Molecule: O=C(NCc1ccccc1)c1ccc(Br)cc1[N+](=O)[O-]
  UUG fidelity = -4.4	HIV Env fusion = -10.6[16.7 µM]

Molecule: COc1ccc([Si](C)(C)[C@H]2[C@H](CCO)O[C@@]3(C(=O)N(Cc4ccc(N5CCCCC5=O)cc4)c4ccccc43)[C@@H]2C)cc1
  UUG fidelity = -10.2	HIV Env fusion = -9.4[16.7 µM]

Molecule: C[C@@H]1CN([C@H](C)CO)S(=O)(=O)c2ccc(-c3cncnc3)cc2O[C@@H]1CN(C)C(=O)Cc1cccnc1
  UUG fidelity = -24.9	HIV Env fusion = -14.2[16.7 µM]

Molecule: O=C(Cc1ccncc1)NCC[C@H]1CC[C@@H](NC(=O)C2CCOCC2)[C@H](CO)O1
  UUG fidelity = -4.4	HIV Env fusion = -10.5[16.7 µM]

Molecule: C[C@H](CO)N1C[C@H](C)[C@@H](CN(C)C(=O)C2CCCCC2)OCCCC[C@H](C)Oc2ccc(NS(=O)(=O)c3cn(C)cn3)cc2C1=O
  UUG fidelity = -0.2	HIV Env fusion = -6.6[16.7 µM]

Molecule: CCC(=O)N(C)C[C@H]1Oc2cc(-c3ccccc3OC)ccc2S(=O)(=O)N([C@@H](C)CO)C[C@@H]1C
  UUG fidelity = 9.7	HIV Env fusion = 23.1[16.7 µM]

Molecule: O=C(C[C@@H]1C=C[C@H](NC(=O)c2ccccc2)[C@@H](CO)O1)NCc1ccncn1
  UUG fidelity = 9.5	HIV Env fusion = -9.4[16.7 µM]

Molecule: CO[C@@H]1CN(C)C(=O)c2cc(NC(=O)c3cnccn3)ccc2OC[C@@H](C)N(C(=O)C2CC2)C[C@@H]1C
  UUG fidelity = 1.1	HIV Env fusion = 9.5[16.7 µM]

Molecule: C[C@@H]1CN([C@@H](C)CO)C(=O)Cc2cc(NS(=O)(=O)c3ccc(Cl)cc3)ccc2O[C@@H]1CN(C)S(=O)(=O)c1ccccc1
  UUG fidelity = 5.9	HIV Env fusion = 6.6[16.7 µM]

Molecule: CO[C@H]1CN(C)C(=O)c2cc(NC(=O)C3CCCCC3)ccc2OC[C@H](C)N(C(=O)c2ccccc2)C[C@@H]1C
  UUG fidelity = 3.1	HIV Env fusion = 12.9[16.7 µM]

Molecule: COc1ccccc1-c1cn(CC[C@@H]2CC[C@@H](NC(=O)c3ccccc3F)[C@@H](CO)O2)nn1
  UUG fidelity = 16.7	HIV Env fusion = -34.7[16.7 µM]

Molecule: Cc1ccc(S(=O)(=O)N(C)C[C@H]2Oc3ccc(NC(=O)CCCCCC(=O)Nc4ccccc4N)cc3CC(=O)N([C@@H](C)CO)C[C@H]2C)cc1
  UUG fidelity = -3.6	HIV Env fusion = 18.2[16.7 µM]

Molecule: O=C(c1ccccc1)N1Cc2ccccc2C[C@]2(N=C(c3ccc(OCCCO)cc3)O[C@@H]2c2ccccc2)C1=O
  UUG fidelity = 6.8	HIV Env fusion = -3.6[16.7 µM]

# Profiles as entered above:
# Record of C[C@@H]1CN([C@@H](C)CO)C(=O)c2cc(NC(=O)CCN3CCOCC3)ccc2O[C@@H]1CN(C)C(=O)Nc1cccc2ccccc12 = UUG fidelity = 25.8; HIV Env fusion = 19.8[16.7 µM]
# Record of COc1cccc(C(=O)Nc2ccc3c(c2)C(=O)N(C)[C@@H]2CC[C@@H](CC(=O)NCC4CC4)O[C@@H]2CO3)c1 = UUG fidelity = 13.5; HIV Env fusion = 5.4[16.7 µM]
# Record of C[C@H]1CN([C@@H](C)CO)C(=O)c2cc(-c3cncnc3)cnc2O[C@H]1CN(C)C(=O)Nc1ccc2c(c1)OCO2 = UUG fidelity = -8.3; HIV Env fusion = -12.0[16.7 µM]

# Screening results: PubChem, Broad Institute
